Screening data as filed in PubChem BioAssay.
Mtb growth: M. tuberculosis H37Rv growth inhibitors, H37Rv strain (AID 1626) | inhibition, % at 10 µM, or IC50 in µM where a hit was titrated | hit rate 0.95% among 220,000 | M. tuberculosis H37Rv growth inhibition; higher % means a stronger effect;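 active means confirmed in a dose series; inconclusive means inhibition above 80% but not taken into the dose series; inactive means below 80% or under 30% at every dose of the series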;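 further: bacteria incubated seven days before Alamar blue readout; 0% = bacteria only wells and 100% = bacteria with antibiotic wells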
Arbovirus anti: antivirals against arbovirus infection, primary screen, cell-based, full library, 10K replicate subset; arbovirus infection cell-based antiviral screen; inhibition, % at 10 µM; hit rate 0.37% among 200,000; AID 1251, 2008;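 active means inhibition from about 30%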;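 further: bluetongue infection of BSR cells; cell survival read as ATP light after 72 h; 0% = infected wells without compound and 100% = uninfected wells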
RecA splice inh: Mtb RecA intein splicing inhibitors, primary screen, biochemical, fluorescence, HTS; cell-free RecA intein splicing; AID 2221, 2009; hit rate 0.75% among 290,000; inhibition, %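 (about 9 µM by stock and volumes)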; in the data active means inhibition above about 30%; inconclusive means no clear call, values can overlap the other calls;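 further: 0% = vehicle wells and 100% = reference inhibitor control wells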
Target sequence (P9WHJ3 whole entry, looked up, canonical isoform): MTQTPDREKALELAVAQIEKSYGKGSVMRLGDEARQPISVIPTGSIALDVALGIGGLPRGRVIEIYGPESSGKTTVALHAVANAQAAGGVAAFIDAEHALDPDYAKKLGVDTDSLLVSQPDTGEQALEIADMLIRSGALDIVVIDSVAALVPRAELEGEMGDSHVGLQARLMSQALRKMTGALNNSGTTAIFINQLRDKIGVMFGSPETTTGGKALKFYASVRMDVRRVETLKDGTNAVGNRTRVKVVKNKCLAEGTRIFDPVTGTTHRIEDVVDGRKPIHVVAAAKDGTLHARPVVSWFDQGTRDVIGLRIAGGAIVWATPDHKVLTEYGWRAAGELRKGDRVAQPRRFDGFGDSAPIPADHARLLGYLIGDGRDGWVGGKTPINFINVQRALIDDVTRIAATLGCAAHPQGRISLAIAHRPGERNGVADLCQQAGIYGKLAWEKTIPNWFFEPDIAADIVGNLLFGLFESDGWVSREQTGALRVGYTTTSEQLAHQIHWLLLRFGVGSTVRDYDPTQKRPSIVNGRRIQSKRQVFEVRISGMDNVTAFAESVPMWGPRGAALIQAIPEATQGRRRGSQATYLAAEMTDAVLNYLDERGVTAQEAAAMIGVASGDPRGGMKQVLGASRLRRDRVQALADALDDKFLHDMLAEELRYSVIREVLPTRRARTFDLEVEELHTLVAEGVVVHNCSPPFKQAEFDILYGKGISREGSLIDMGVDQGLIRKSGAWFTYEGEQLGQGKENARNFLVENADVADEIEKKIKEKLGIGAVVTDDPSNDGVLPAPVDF
Mtb bLac sens: beta-lactam sensitization of Mtb H37Rv, H37Rv; hit rate 0.27% among 330,000; M. tuberculosis H37Rv growth with meropenem, percent inhibition; hits of this screen are not shown here; AID 434955, 2010; inhibition, % at 25 µM;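 active means about 74% or more and at least 40 points above the plate without the antibiotic, then above 30% in a dose series; inconclusive means first-round hits that could not be retested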;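 further: growth measured after seven days incubation then overnight dye step; 0% = bacteria only wells and 100% = bacteria with antibiotic; twin plates without the antibiotic show which effects depend on it; some results filed as inactive read as strong as hits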
YopH inh: YopH tyrosine phosphatase inhibitors, primary screen, biochemical, fluorescence Ex485/Em525 | hit rate 0.16% among 140,000 | AID 898, 2007 | YopH tyrosine phosphatase [Yersinia enterocolitica] | inhibition, %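 (about 10 µM by stock and volumes)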;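 active means inhibition of 50% or more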;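 further: controls were vehicle for no effect and minimum signal wells for full effect; inactives centre near -20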
Arbovirus anti repeat: recorded beside Arbovirus anti, whose call it bears; inhibition, %; measured here: 10K subset replicate screen; many hits read low in the repeat;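 first of two repeat runs on a subset; 0% = infected and 100% = uninfected wells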
* hit, by the source's call; ? = inconclusive; / = not tested or not shown.

SMILES	Mtb growth	Arbovirus anti	RecA splice inh	Mtb bLac sens	YopH inh	others
COc1ccccc1Nc1nc(C)cc(=O)[nH]1	-3.1%	2.1	-1.8	4.8	-15.1
CC(C)C(C(=O)NCC1CCCO1)N(C(=O)CNS(=O)(=O)c1ccc(F)cc1)c1ccccc1 (stereo not given)	/	/	-0.9	1.0	/
COc1ccc(C(=O)NC(=S)Nc2cccnc2)cc1[N+](=O)[O-]	-0.5%	10.4	-0.4	-15.2	/
CC(=O)c1ccc(NC(=O)c2ccccc2Sc2ncnc3sc(C)c(C)c23)cc1	8.2%	4.9	0.4	2.5	-31.6
O=C(C1=C[C@H](c2ccccc2)C[C@H](OCc2ccc(CO)cc2)O1)N1CCN(Cc2ccccc2)CC1	-0.2%	-1.2	7.0	4.5	/
COc1ccccc1NS(=O)(=O)NC(=O)c1cn(C)c2ccccc12	/	/	3.8	-0.1	/
Cc1cc(N2CCCC2)ccc1NC(=O)CN1C(=O)NC2(CCCCC2)C1=O	/	/	-2.9	0.1	/
CCN=C1SC(C(=O)Nc2cccc(C(=O)O)c2)CC(=O)N1CC (stereo not given)	-7.5%	3.1	0.5	-0.5	-44.7
Cc1ccc(-c2ccc(S(=O)(=O)N3CC(C)OC(C)C3)cc2)cc1 (stereo not given)	/	/	-1.0	-3.5	/
CC(=O)N1CCCc2cc(S(=O)(=O)N3CCN(c4ccccn4)CC3)ccc21	-2.8%	12.4	-0.2	-0.6	-5.3
COc1ccc(CNC(=O)CN2CCN(c3ccccc3)CC2)cc1	/	/	0.0	-2.1	/
Cc1sc(CO)c(Sc2ccccc2)c1C(=O)O	/	9.5	-2.6	6.1	-59.0
CC(C)c1ccc2nc(N)sc2c1	43.3µM*	11.9	1.9	87.9	/
Cc1ccc(-c2nnc(N3CCN(C(=O)Cn4c(=O)n(C)c5ccccc54)CC3)c3ccccc23)cc1	14.1%	3.0	3.0	-3.9	-20.2
O=C1NCC(CN(c2ccccc2)c2ccccc2)O1 (stereo not given)	1.6%	7.1	/	-20.9	-45.6
COc1ccc(N/N=C(/Oc2ccc([N+](=O)[O-])cc2)C(C)=O)cc1	5.0%	2.6	0.5	3.6	32.5
Cc1cc(C)c(C#N)c(N2CCC(C(N)=O)CC2)n1	-4.6%	2.9	-1.5	7.5	/
CCCNC(=O)Cc1ncn[nH]1	-2.0%	-0.8	-3.2	-13.4	-0.9
O=C(COC(=O)c1ccc(NC(=O)C2CC=CCC2C(=O)O)cc1)c1ccccc1 (stereo not given)	/	/	1.4	-7.1	/
CC(=O)c1cccc(S(=O)(=O)Nc2ccc(N3CCOCC3)cc2)c1	/	/	-2.9	7.1	/
COc1ccc(N2C(=O)CC(n3cnc4ccccc43)C2=O)cc1 (stereo not given)	-9.0%	3.6	5.1	6.8	-10.9
O=C(Nc1ccc2c(c1)CCC2)c1cccc(S(=O)(=O)N2CCN(c3ccc(F)cc3)CC2)c1	0.3%	4.1	0.4	-8.8	-6.8
C=CCS(=O)(=O)N1CCCC(N(C)CCc2ccc(OC)c(OC)c2)C1 (stereo not given)	/	/	2.0	-0.3	/
N#Cc1cc(-c2ccccc2)nc(Oc2ccc(Cl)cc2)n1	15.3%	10.7	13.1	-1.4	-15.7
COC(=O)c1cn(CCOc2ccccc2OC)c2ccccc12	-3.5%	7.2	1.7	-0.6	41.2
Cc1ccc(NC(=O)C2CCCN2C(=O)OC(C)(C)C)cc1C (stereo not given)	-1.6%	/	-0.9	-2.3	/
O=S1(=O)N=C(Nc2ccc(O)cc2)c2ccccc21	5.1%	3.1	0.8	-2.3	/
Cc1ccc(S(=O)(=O)N[C@H](C(=O)OCC(=O)N2N=C(c3ccc(Cl)cc3)CC2c2ccco2)C(C)C)cc1 (stereo not given in full)	12.9%	8.2	8.7	8.0	-22.2
Cc1ccc(Oc2c(C=O)c3ccccc3n2C)cc1	15.9%	3.0	/	-1.2	-30.4
Cc1ccccc1NC(=S)Nc1ccc(Br)cc1	-2.8%	20.5	9.4	-1.5	-21.2

The final 2 records of the section above are carried over, then new ones follow:
SMILES	Mtb growth	Arbovirus anti	RecA splice inh	Mtb bLac sens	YopH inh	others
Cc1ccc(Oc2c(C=O)c3ccccc3n2C)cc1	15.9%	3.0	/	-1.2	-30.4
Cc1ccccc1NC(=S)Nc1ccc(Br)cc1	-2.8%	20.5	9.4	-1.5	-21.2
COc1ccc(-n2nc3c(c2NC(=O)Cc2cccc(C)c2)CS(=O)C3)cc1 (stereo not given)	-0.5%	-3.0	-0.7	-0.6	-9.3
CCOc1ccc(C(C)=O)cc1CSc1nnc(-c2ccncc2)n1CCOC	1.8%	1.5	-1.2	2.5	/
OC(CNC1CCCCC1)C(F)(F)F (stereo not given)	-6.3%	2.7	-1.5	-1.2	/
Cc1n[nH]c(C)c1N=Nc1ccc(Br)cc1	5.3%	-25.4	9.1	3.9	/
CN(C)c1nnnn1-c1ccc(Cl)cc1	/	1.8	-0.3	-6.1	/
COc1cc(C=C2C(=O)c3ccccc3C2=O)cc(OC)c1	2.4%	/	-0.5	-0.7	/
Cc1ccc(Nc2ccccc2)nn1	-2.9%	/	0.3	0.8	/
CC(O)[C@H]1CN=C(N)N1CCc1cc(C(F)(F)F)cc(C(F)(F)F)c1 (stereo not given in full)	2.9%	/	-3.6	-0.3	/
CCOc1ccc(S(=O)(=O)N(C)CC(=O)NCc2ccccn2)cc1Cl	/	/	-0.2	-3.1	/
Cc1cc(Cl)ccc1NS(=O)(=O)c1c(C)[nH]c(=O)[nH]c1=O	/	/	-3.0	9.9	/
CCC(C)NC(=O)CCS(=O)(=O)c1ccc2c(c1)n(C)c(=O)c(=O)n2C (stereo not given)	7.0%	1.7	0.1	-8.3	-27.6	Arbovirus anti repeat=-1.1
CC(=O)c1cccc(NC(=O)CSc2nc(N3CCCCC3)nc(N3CCCCC3)n2)c1	4.7%	1.0	0.2	2.6	/
C=C(C)CNC(=O)c1ccc2nc(Cc3ccc(OC)cc3)oc2c1	/	/	4.3	7.3	/
COc1ccc(-c2cc(C)no2)cc1S(=O)(=O)N1CCCCC1	/	/	-2.7	-0.7	/
O=S(=O)(c1cccc(C(F)(F)F)c1)N1CCC(CO)(CCCc2ccccc2)CC1	/	/	5.3	3.1	/

Continued; the last five above are carried over.
SMILES	Mtb growth	Arbovirus anti	RecA splice inh	Mtb bLac sens	YopH inh	others
CCC(C)NC(=O)CCS(=O)(=O)c1ccc2c(c1)n(C)c(=O)c(=O)n2C (stereo not given)	7.0%	1.7	0.1	-8.3	-27.6	Arbovirus anti repeat=-1.1
CC(=O)c1cccc(NC(=O)CSc2nc(N3CCCCC3)nc(N3CCCCC3)n2)c1	4.7%	1.0	0.2	2.6	/
C=C(C)CNC(=O)c1ccc2nc(Cc3ccc(OC)cc3)oc2c1	/	/	4.3	7.3	/
COc1ccc(-c2cc(C)no2)cc1S(=O)(=O)N1CCCCC1	/	/	-2.7	-0.7	/
O=S(=O)(c1cccc(C(F)(F)F)c1)N1CCC(CO)(CCCc2ccccc2)CC1	/	/	5.3	3.1	/
CC(=O)C1=C(NC(=O)c2ccccc2F)C[C@@H]2[C@H]1C2(C)C	14.3%	-0.5	5.3	5.0	-15.9
COc1cccc(C2c3c(oc4ccc(Cl)cc4c3=O)C(=O)N2c2cc(C)on2)c1OC (stereo not given)	-5.1%	-11.1	-0.5	27.6	-31.8
COc1ccccc1CNS(=O)(=O)c1cccc(S(=O)(=O)N2CCOCC2)c1	-1.0%	15.6	-0.3	-3.8	-40.9
Cc1ccc(S(=O)(=O)N2CCCCC2)c2nsnc12	/	/	1.6	-6.0	/
COc1ccccc1CN(Cc1cc2cc(C)cc(C)c2[nH]c1=O)Cc1nnnn1CC1CCCO1 (stereo not given)	10.1%	2.1	7.6	70.4	-13.6
CC(Oc1ccccc1)C(=O)Nc1c2c(nn1-c1ccccc1)CS(=O)(=O)C2 (stereo not given)	/	/	1.8	-1.7	/
Nc1ccc2nn(-c3ccc(Cl)cc3)nc2c1	-5.4%	/	-60.6	12.4	/
C/C(=N\Nc1ccccc1)c1c(O)n(Cc2ccccc2)c(=O)[nH]c1=O	?	-32.0	-4.5	92.5	-17.4
CC(C)c1cccc(OCC(=O)Nc2ccc(S(=O)(=O)Nc3ccccn3)cc2)c1	/	/	1.8	1.0	/
O=C1OCc2ccc(NC(=O)C3CCCCC3)cc21	1.2%	0.9	-2.6	8.7	4.8
O=C(NC(Cc1ccccc1)C(=O)O)c1ccccc1 (stereo not given)	-0.6%	-2.3	-1.4	-7.5	-18.1
N#Cc1cnc(SCC(=O)NNC(=O)COc2cccc3ccccc23)nc1N	6.0%	5.2	-3.0	-2.0	-24.1
CCOc1ccc(N(CC)C(=O)c2cn(CC)c(=O)c3cc(OC)c(OC)cc23)cc1	/	/	-1.9	3.8	/
O=C1CCCCCN1CP(=O)(O)CCc1ccccc1	-2.2%	9.1	-2.2	3.5	2.8	Arbovirus anti repeat=2.8
O=C(CSc1ncccn1)Nc1ccc(S(=O)(=O)N2CCCCC2)cc1	6.6%	-2.1	-1.8	-10.7	-30.6
Cc1ccc(S(=O)(=O)n2ccc3c(OCCOCCSCC(NC(=O)OC(C)(C)C)C(=O)O)cccc32)cc1 (stereo not given)	/	/	10.5	-3.8	/
CCOC(=O)c1c(C)n(CCN2CCN(C)CC2)c2ccc(OC)cc12	-10.0%	-9.4	0.9	2.7	-12.5
O=C(CSc1nc2ccccc2[nH]1)NCc1ccc(F)cc1	6.5%	-5.2	0.2	-2.8	/
C=CCN(c1ccccc1)S(=O)(=O)c1cccc(C(=O)N2CC(C)CC(C)C2)c1 (stereo not given)	/	/	6.0	-7.4	/
CCOC(=O)C(CC)n1nc(C)n2c(cc3occc32)c1=O (stereo not given)	-4.4%	4.7	4.2	-1.2	-13.9
S=c1[nH]c2ncccc2o1	-5.6%	6.0	-4.3	?	-11.1
Clc1ccc(-c2cn3c(n2)CCC3)cc1	-7.3%	-0.7	0.2	-8.8	-30.9
CCN(c1ccccc1)S(=O)(=O)c1cccc(C(=O)NCC(c2ccco2)N2CCCC2)c1 (stereo not given)	/	/	-0.9	2.4	/
CC(C)NS(=O)(=O)c1ccc(NC(=S)NC(=O)c2ccc(-c3ccccc3)cc2)cc1	11.3%	-12.0	-0.8	6.2	-22.9
CCOC(=O)C1=C(N)Oc2cc(C)oc(=O)c2C12C(=O)N1c3c(cccc32)C(C)=CC1(C)C (stereo not given)	-8.7%	-16.4	1.7	-7.8	-0.1
COc1c2c(nc3ccccc13)OC(C(C)(O)CO)C2 (stereo not given)	-11.1%	11.8	-1.8	-0.8	-24.7
CCCCN(C)C(=O)c1cn(C)c2ccc(S(=O)(=O)N(C)C)cc2c1=O	-11.4%	4.5	0.1	-1.9	-26.6	Arbovirus anti repeat=8.2
O=C(c1ccc(Cl)c(S(=O)(=O)N2CCOCC2)c1)N(Cc1nnc(-c2ccccc2Cl)o1)C1CC1	/	/	-0.2	-10.5	/
CN1CCN(c2nc(-c3cc4ccccc4o3)cs2)CC1	-2.1%	-22.0	-1.3	2.2	-29.4

Only part of the results is shown; count on the stated rates, not on these rows.
